Calb FLC = affects C. albicans growth with fluconazole; C. albicans CaCi-2 (fluconazole-resistant clinical isolate) + fluconazole, Alamar Blue growth, 48 h; growth inhibition, % (no concentration beside the values); 300,000 compounds, 0.57% hits;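 active = most replicates above 75%; inconclusive = exactly half above 75%; inactive = most below 75%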;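 also: all wells also contain fluconazole at 8 µg/ml as a sub-toxic cotreatment; 0% = median of DMSO wells and 100% = median of geldanamycin control wells; wells of about 8 µL received 7.5 nL stock; the first replicate is given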
Beta cell apopt = beta cell apoptosis inhibition; INS-1E cytokine-induced death, ATP luminescence, 48 h; percent of positive-control rescue, neutral wells zero; protection from apoptosis, % (test concentration not listed); 300,000 compounds, 0.8% hits; AID 435005;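 active = all replicates at 75% or more, or half of them and the mean; inconclusive = half reach 75% but not the mean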;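 also: 0% = cytokine-treated negative control wells and 100% = positive control rescue; higher means more ATP so stronger rescue from cytokine killing; wells of about 40 µL received 100 nL stock; the first replicate is given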
LANA-H2A inh = blocks KSHV LANA binding to histone H2A/H2B. Q9QR71. cell-free LANA-H2A/H2B peptide, fluorescence polarization. inhibition, % (concentration not given with the values). 320,000 compounds, 0.6% hits. AID 2629; in the data active = inhibition mostly above about 10%, no sharp cut-off; inactive = mostly below about 6.7%;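 also: stock transfer was 7.5 nL into about 10 µL; 0% = median of vehicle wells and 100% = median of positive control wells; one replicate is shown; the record names a cut of 25% in any replicate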
Bfl-1 A1 inh = inhibitors of the anti-apoptotic protein A1, read as caspase activation | MEF A1-2A-BIM cells, Caspase-Glo 3/7 luminescence, 3 h; percent of clofoctol response, vehicle zero | caspase activation, % (concentration not given with the values) | 330,000 compounds, 0.066% hits | AID 2462;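 active = over half of replicate activation scores above 10%, or exactly half above 10 with the replicate mean above 10; inconclusive = replicate mean below 10 yet half the replicates above 10; inactive = over half of replicates below 10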;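 also: wells of about 30 µL received 50 nL stock; many hits fall short of the cut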
Vif A3G = HIV-1 Vif–A3G interaction blockers – biochemical, TR-FRET, GST-Vif 1-94, biotin-A3G peptide, dose response retest, primary screen (AID 1117319); TR-FRET GST-Vif / biotin-A3G peptide binding; higher % means a stronger effect; test concentration not given here; strong numbers were not always called active; 260,000 compounds, 0.57% hits; inhibition, %; hits with a dose series show IC50 in µM;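 active = above the screen mean plus three standard deviations and confirmed in dose response; inconclusive = results disagree or hit not tested in dose response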;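 also: Vif residues 1-94 fused to GST binding biotinylated APOBEC3G peptide 110-148; 0% = full assay without inhibitor and 100% = GST in place of GST-Vif; retest series ran down from 100 µM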
T cruzi inh = T. cruzi replication inhibition; inhibition, % (test concentration not listed); 300,000 compounds, 1.4% hits; T. cruzi beta-gal in NIH3T3, luminescence, 90 h;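 active = mean inhibition across valid replicates above about 55%, limit read from the data; inconclusive = mean below that limit but half or more replicates reach it; inactive = mean below it, under half of replicates reach it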;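 also: signal also drops with host cell toxicity which is not excluded here; 0% = plate median of DMSO wells and 100% = zero luminescence signal; higher percent means less beta-gal luminescence so fewer parasites; stock transfer was 50 nL into about 50 µL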
RanGTP-Impb inh = disruptors of Ran-importin-beta complex formation – biochemical, FRET, CFP-Ran, YFP-importin-beta, homogeneous, primary screen. inhibition, % (concentration not given with the values). cell-free CFP-Ran/YFP-importin-beta FRET ratio. 300,000 compounds, 1.1% hits;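 active = most replicates above 15%; inconclusive = exactly half above 15%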;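 also: 0% = DMSO wells and 100% = Ran loaded with GDP instead of GTP; wells of about 40 µL received 100 nL stock; the first replicate is given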
MLL AF4-AF9 inh = inhibitors of human MLL-AF4/AF9 interaction | inhibition, % at 10 µM | P42568 | AID 651704 | 350,000 compounds, 0.47% hits | AlphaScreen, biotin-AF4 peptide binding to FLAG-AF9;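 active = every replicate reaching a set inhibition limit, whatever the replicate mean, cut at about 25% in these data; inconclusive = mean inhibition reaches that limit but some replicates miss it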;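 also: 0% = plate neutral control median and 100% = total signal loss; the record names both 10 and 1 µM as test concentration; the first replicate is given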
Target sequence (P42568 whole entry, looked up): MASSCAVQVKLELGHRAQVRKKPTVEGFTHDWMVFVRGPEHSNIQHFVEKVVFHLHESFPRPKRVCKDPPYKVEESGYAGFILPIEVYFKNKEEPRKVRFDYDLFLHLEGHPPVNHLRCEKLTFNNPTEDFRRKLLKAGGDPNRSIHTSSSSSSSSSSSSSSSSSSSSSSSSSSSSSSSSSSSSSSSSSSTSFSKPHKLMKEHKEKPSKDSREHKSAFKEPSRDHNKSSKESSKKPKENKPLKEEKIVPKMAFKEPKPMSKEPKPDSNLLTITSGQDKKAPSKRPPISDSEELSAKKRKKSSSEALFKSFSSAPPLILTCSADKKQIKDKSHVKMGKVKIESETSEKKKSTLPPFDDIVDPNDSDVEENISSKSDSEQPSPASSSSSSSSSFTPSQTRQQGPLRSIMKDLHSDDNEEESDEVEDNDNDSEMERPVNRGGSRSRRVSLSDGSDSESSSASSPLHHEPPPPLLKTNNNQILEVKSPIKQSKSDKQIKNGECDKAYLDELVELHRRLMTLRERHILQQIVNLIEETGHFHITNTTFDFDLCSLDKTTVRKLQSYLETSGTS
Starred values were filed as active, the others as inactive; ? = inconclusive; . = not tested or not shown; & = joins results of further samples. Random draw from the library; 4.3% or so of the library scored in one or more.

Compound	Calb FLC	Beta cell apopt	LANA-H2A inh	Bfl-1 A1 inh	Vif A3G	T cruzi inh	RanGTP-Impb inh	MLL AF4-AF9 inh
O=C(CCc1nc2sc3c(c2c(=O)[nH]1)CCCC3)Nc1ccccc1Cl	8.4	-1.5	7.1	1.2	-42.0%	-2.8	4.0	-22.6
CCCS(=O)(=O)N1CCCC(C(=O)NCCc2ccc(OC)c(OC)c2)C1 (stereo not given)	-7.5	-8.5	1.5	1.7	-0.9%	-5.0	1.5	.
O=C(NC1(C(F)(F)F)NC(=O)N(C2CCCCC2)C1=O)c1ccco1 (stereo not given)	4.7	-10.3	-5.7	0.0	-0.8%	4.0	-2.5	-4.9
CC(C)COC(=O)Nc1ccc(C(=O)O)cc1	3.4	-1.2	5.9	0.5	2.2%	-6.4	5.3	.
COc1ccccc1N1CCN(CCc2n[nH]c(=S)n2-c2ccccc2)CC1	26.8	-7.1	0.4	0.3	67.6%	2.5	5.8	.
COc1ccc(C)cc1C(=O)C1CC(C(=O)O)C(C)(C)C1C (stereo not given)	-2.2	-5.5	-5.7	0.2	0.4%	-7.3	1.9	.
Cc1cc(-n2c(C)cc(C(=O)CN3C(=O)NC4(CCCCC4C)C3=O)c2C)no1 (stereo not given)	-23.3	4.3	-6.2	0.0	6.4%	6.3	3.6	.
COc1ccc(S(=O)(=O)N2CCC(n3cnc4cc(C(F)(F)F)ccc43)CC2)cc1	2.0	-8.3	-12.9	0.1	25.6%	17.7	-4.4	.
O=C(Nc1cccc(Cl)c1)C1CCCN(S(=O)(=O)c2cnc[nH]2)C1 (stereo not given)	-2.1	0.6	-2.9	-0.3	-0.1%	-5.3	0.6	0.1
O=C(COc1ccccc1)Nc1nnc(COc2ccccc2)s1	23.9	-10.6	0.6	-0.5	.	-1.2	2.6	-20.1
CCOc1ccc(NCCC(=O)c2ccc3c(c2)OCO3)cc1	-16.0	4.7	-2.8	-0.1	16.8%	50.8	-2.2	6.4
C[C@H](NC(=O)N1CCn2c1nc1ccccc12)C(=O)NCc1ccccc1	7.2	-4.9	1.8	-0.5	-1.2%	-7.8	-3.2	-0.2
CSc1nnnn1CCn1nnnc1SC	-1.3	-0.8	-1.4	2.5	?	8.2	-7.4	.
Nc1ccc(S(=O)(=O)NC2(C(F)(F)F)NC(=O)N(c3ccccc3Cl)C2=O)cc1 (stereo not given)	-2.8	-2.7	2.5	0.7	24.0%	10.4	3.6	.
O=C(c1cccc(S(=O)(=O)N2CCCC2)c1)N1CCCc2ccccc21	-20.2	0.8	1.3	1.2	-6.7%	-14.1	-5.7	-0.9
Cc1sc2ncnc(N/N=C/c3ccccc3O)c2c1C	33.9	85.5*	0.0	0.4	.	32.4	8.3	.
Cc1cc(C)c(S(C)(=O)=O)c(S(=O)c2ccc(Cl)cc2)n1 (stereo not given)	-16.2	-8.0	-0.4	-0.3	3.7%	-17.5	-1.0	.
CC[C@@H]1C=C(C(=O)O)[C@H](c2ccc(C)cc2)N1S(=O)(=O)c1ccc(C)cc1	.	-9.2	-6.6	-1.3	2.4%	.	.	-1.2
COC(=O)C(C)Sc1nnc(Cc2cc(=O)[nH]c(=O)[nH]2)n1-c1ccc(Cl)cc1 (stereo not given)	3.3	-7.7	5.2	0.3	15.5%	-6.2	-4.2	-10.6
O=C(c1ccco1)N1CCN(C(=S)Nc2cc(F)cc(F)c2)CC1	.	4.1	1.3	0.1	.	-4.6	.	-1.8
N/C(=N\c1nc2c(c(=O)[nH]1)CCC2)Nc1ccccc1C(F)(F)F	-12.8	-9.7	0.1	-0.1	1.9%	-14.8	-2.8	10.3
Nc1nc(SCC(=O)NC2CCCCC2)[nH]c(=O)c1-c1ccccc1	12.8	-5.5	3.8	0.0	4.7%	-5.5	1.2	.
Cc1cccc(NC(=S)N2CCCC2)c1	-1.8	-2.6	0.6	0.6	.	-12.4	-0.2	-0.4
Cc1sc(N/N=C/c2cc([N+](=O)[O-])ccc2O)nc1-c1ccccc1	-5.2	0.2	2.5	-0.1	5.5%	8.8	1.8	-3.3
O=C(NC(Cc1ccccc1)C(=O)O)c1ccco1 (stereo not given)	0.1	-0.4	0.1	2.2	-0.3%	-6.8	-1.6	0.6
O=C(OCc1ccccc1)c1ccccc1	6.3	-1.4	2.8	-0.3	.	0.2	2.2	-8.6
COc1ccc(NC(=O)Cn2c(=O)n(CCC(=O)NCC3CCCO3)c(=O)c3cc(OC)c(OC)cc32)cc1 (stereo not given)	-9.0	2.3	-2.7	0.0	-4.7%	-6.5	-1.8	2.9
CCOC(=O)C1CCN(C(=O)Cn2c(=O)oc3cc(S(=O)(=O)N4CCCC4)ccc32)CC1	-10.9	-1.3	-0.5	0.5	.	-7.2	1.1	0.5
CCOC(=O)N1CCN(CCC(=O)Nc2cc(C)ccc2C)CC1	-5.3	.	7.2	0.4	-2.8%	-4.1	1.1	0.4
COc1ccc(Nc2oc(-c3cccs3)nc2C#N)cc1	3.5	3.0	4.0	-1.5	-1.1%	24.7	2.3	.
CCC(C(=O)NCCCN1CCN(C)CC1)n1nc(C)c2sc3ccccc3c2c1=O (stereo not given)	-6.2	.	5.8	-0.3	1.4%	25.4	-1.3	2.9
CN1CCC(=NNC(=O)c2ccc(N(Cc3ccccc3Cl)S(C)(=O)=O)cc2)CC1	0.9	0.8	-1.6	-0.3	-10.6%	8.6	-1.6	.
COC(=O)Cn1c(=O)c2c(nc3n2CCCN3Cc2ccccc2)n(C)c1=O	4.2	-7.3	-0.2	0.4	0.2%	6.7	-4.7	-7.7
O=C(Cc1ccc([N+](=O)[O-])cc1)NCc1ccccn1	-5.9	-11.4	-2.0	-0.8	8.1%	-14.9	0.0	0.8
CCOC(=O)CN(C(=O)COc1nc(-c2ccccc2)cc(C)c1C#N)c1ccccc1	-2.9	.	-0.6	0.1	10.4%	42.2	0.9	-2.3
Cc1cc(N2CCN(S(=O)(=O)c3ccccc3)CC2)nc2c(C)cccc12	-16.6	-1.8	-2.4	0.0	.	29.7	-2.9	-3.3
Cc1cc(C)cc(C(=O)NC(CC(N)=O)c2ccc(NCC3CC3)c([N+](=O)[O-])c2)c1 (stereo not given)	-7.0	3.4	2.2	-1.3	.	-1.9	-0.6	-0.1
Cc1ccc(-c2nnn(CC(=O)N(c3cccc(F)c3)C(C(=O)NC3CCCC3)c3ccco3)n2)o1 (stereo not given)	19.5	.	-7.8	0.6	11.4%	13.8	0.8	0.0
CCOc1ccc(CCNC(=O)C2CCCN(c3nn4c(=O)cc(C)nc4s3)C2)cc1OCC (stereo not given)	1.4	-3.9	0.0	-0.3	12.5%	7.1	?	.
CCC1CCCCN1c1nc(-c2cccc(OC)c2O)nc2ccccc12 (stereo not given)	0.5	12.0	-2.5	-1.2	?	51.9	2.9	.

Whole records as entered above.
Record of Cc1cc(N2CCN(S(=O)(=O)c3ccccc3)CC2)nc2c(C)cccc12 : Calb FLC: -16.6; Beta cell apopt: -1.8; LANA-H2A inh: -2.4; Bfl-1 A1 inh: 0.0; Vif A3G: .; T cruzi inh: 29.7; RanGTP-Impb inh: -2.9; MLL AF4-AF9 inh: -3.3
Record of CCOc1ccc(CCNC(=O)C2CCCN(c3nn4c(=O)cc(C)nc4s3)C2)cc1OCC (stereo not given) : Calb FLC: 1.4; Beta cell apopt: -3.9; LANA-H2A inh: 0.0; Bfl-1 A1 inh: -0.3; Vif A3G: 12.5%; T cruzi inh: 7.1; RanGTP-Impb inh: ?; MLL AF4-AF9 inh: .

(next part)
Compound	Calb FLC	Beta cell apopt	LANA-H2A inh	Bfl-1 A1 inh	Vif A3G	T cruzi inh	RanGTP-Impb inh	MLL AF4-AF9 inh
Cc1cc(OCC(=O)Nc2ccc(S(=O)(=O)N3CCN(C)CC3)cc2)cc(C)c1Cl	-8.7	-0.8	2.2	0.3	-0.4%	-4.6	-1.7	.
Cc1cccc[n+]1CC(=O)Nc1ccc([N+](=O)[O-])cc1	-11.6	-5.5	3.9	-0.5	.	-11.1	3.8	-1.9
COc1ccc(C2CC(c3ccccc3O)=NN2C(=O)c2ccccc2)cc1OC (stereo not given)	-10.4	-1.4	1.3	1.4	-98.3%	-0.2	2.5	41.1*
O=C(N/N=C/c1ccccc1)c1cc(=O)[nH]c2ccccc12	20.2	3.9	-3.7	-0.3	7.9%	7.5	4.8	-0.2
COc1ccc2cc(C(c3nnnn3Cc3ccc(F)cc3)N3CCCCCC3)c(=O)[nH]c2c1 (stereo not given)	-1.5	.	.	.	-18.7%&-6.6%	-3.3	10.2	4.1
Cc1cc(NC(=O)CSCC(=O)N(C)Cc2ccc(Cl)cc2Cl)no1	4.3	-3.9	5.1	0.7	-2.3%	2.8	-2.4	3.5
CN1CCN(C(=O)C23CCC(C)(C(=O)C2Br)C3(C)C)CC1 (stereo not given)	2.0	-5.8	-3.6	0.0	25.3%	-10.3	1.6	-3.3
CCOc1ccc(N(C)Cc2cc(=O)oc3ccc(OC)cc23)cc1	0.0	11.8	1.7	-0.1	.	79.2*	-1.1	5.7
O=C(COc1ccc(Cl)cc1)Nc1ccc(C(=O)O)cc1NC(=O)COc1ccc(Cl)cc1	.	-7.9	-5.5	-0.2	-2.9%	1.9	.	-1.8
CCOCCCNC(=O)CCc1nnc2ccc(N3CCCCC3)nn12	-3.4	-2.6	-0.9	1.5	-10.2%	-3.5	-1.5	.
Cc1cccc(C)c1NC(=S)N(CCCN1CCN(C)CC1)Cc1cccs1	-3.7	-8.5	-0.6	-0.2	-16.0%	11.7	-0.1	-2.0
C1CCN(CCCNC2C3CC4CC(C3)CC2C4)C1 (stereo not given)	10.6	7.7	-2.3	0.7	.	25.2	?	-7.2
C/C(=N\NC(=O)Cc1ccccc1)c1cccs1	-10.5	3.2	4.2	0.6	9.2%	-16.4	-5.3	8.8
O=C(/C=C/c1ccccc1)N/C(=C/c1ccccc1)C(=O)NCCCO	-3.6	-4.0	9.9	0.7	.	-12.3	-3.3	-1.5
CCN(CC)S(=O)(=O)c1cccc(NC(=O)CCSc2ccc(Cl)cc2)c1	?	-0.9	0.4	-0.2	-2.9%	-1.1	1.1	.

Compound activity as filed in PubChem BioAssay.
